# Screening results deposited in PubChem by National Center for Advancing Translational Sciences (NCATS).
# 2A StopGo = FMDV 2A StopGo reporter, luciferase signal; Potency, µM (top dose mostly 57.9 µM), for inactives: at the highest dose signal change, negative = less light; hit rate 1.2% among 410,000; human cells with a luciferase reporter of 2A StopGo recoding; control for the full effect not named in the record; active = well fitted falling curve with a large enough effect; inconclusive = small, poorly fitted or top-dose-only effect; inactive = no such curve, though single readings can be large or run the other way; tested in HEK293T cells; note: % is set by controls: 0 for no effect and ±100 for the full control effect; nearly all actives have a fitted effect of over 45% in size; luciferase light after 4 h
# Lassa entry inh = inhibitors of Lassa virus binding or cell entry. Lassa virus pseudotype entry inhibition, cell reporter; control for the full effect not named in the record. hit rate 1.2% among 300,000. Potency, µM (series often up to 37.9 µM), for the others: at the highest dose activity change, negative = inhibition, hits mostly inhibitors; active means well fitted inhibition curve with a large enough effect; inconclusive means small, poorly fitted or top-dose-only effect, or effect the other way; inactive means flat fitted curve, though single readings scatter; tested in HEK293 cells; note: % is set by controls: 0 for no effect and ±100 for the full control effect; nearly all actives have a fitted effect of over 50% in size; luciferase read-out
# NS1 function inh = inhibitors of influenza NS1 protein function. S. cerevisiae slowed by influenza A NS1, growth recovery by OD600. Potency, µM (series often up to 46.1 µM), inactives show at the highest dose activity, positive = more growth. hit rate 0.4% among 270,000. AID 2326; active means well fitted rising curve with a large enough effect; inconclusive means small, poorly fitted or top-dose-only effect; inactive means no such curve, though single readings can be large or run the other way; note: nearly all actives have a fitted effect of over 50% in size
#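 Compounds were scored for reversing the slow growth caused by influenza A NS1 in S. cerevisiae, measured by optical density at 600 nm. Assay medium contained 2% galactose at pH 6.0; NS1-free yeast of the same strain were the positive control.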
# SARS PLpro yeast = inhibitors of SARS-CoV papain-like protease in yeast | S. cerevisiae expressing SARS-CoV PLpro, growth rescue; control for the full effect not named in the record | Potency, µM (series often up to 32.9 µM), without a hit: top-dose activity, positive = growth rescue | hit rate 0.19% among 330,000 | AID 485353; active means well fitted rising curve with a large enough effect; inconclusive means small, poorly fitted or top-dose-only effect; inactive means no such curve, though single readings can be large or run the other way; note: 0% is about no effect; nearly all actives have a fitted effect of over 55% in size; growth read by luminescence after 48 h
# MARV entry inh = blocks Marburg virus binding to or entry into cells; Marburg virus pseudotyped entry inhibition, cell reporter; control for the full effect not named in the record; about a third of the inactives were read at about 46 µM; Potency, µM (top dose mostly 37.8 µM), without a hit: at the highest dose activity change, negative = inhibition, actives largely listed as inhibitors; hit rate 1.8% among 300,000; AID 540276; active = well fitted inhibition curve with a large enough effect; inconclusive = small, poorly fitted or top-dose-only effect, or effect the other way; inactive = flat fitted curve, though single readings scatter; tested in HEK293 cells; about a fifth of its hits are not listed in these tables; note: % is set by controls: 0 for no effect and ±100 for the full control effect; luciferase read-out
# Cruzain inh Det = inhibitors of Trypanosoma cruzi cruzain with detergent | P25779 | purified cruzain, Z-FR-AMC fluorescence, 0.01% Triton | Potency, µM, for inactives: max response, negative = inhibition, actives largely listed as inhibitors | hit rate 0.43% among 200,000 | AID 1478;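 note: plate controls were neutral wells for no effect and buffer without enzyme for full effect; nearly all actives have a fitted effect of over 40% in size; top concentration of the series not given in the record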
# Target sequence (P25779 123-467 limits assumed): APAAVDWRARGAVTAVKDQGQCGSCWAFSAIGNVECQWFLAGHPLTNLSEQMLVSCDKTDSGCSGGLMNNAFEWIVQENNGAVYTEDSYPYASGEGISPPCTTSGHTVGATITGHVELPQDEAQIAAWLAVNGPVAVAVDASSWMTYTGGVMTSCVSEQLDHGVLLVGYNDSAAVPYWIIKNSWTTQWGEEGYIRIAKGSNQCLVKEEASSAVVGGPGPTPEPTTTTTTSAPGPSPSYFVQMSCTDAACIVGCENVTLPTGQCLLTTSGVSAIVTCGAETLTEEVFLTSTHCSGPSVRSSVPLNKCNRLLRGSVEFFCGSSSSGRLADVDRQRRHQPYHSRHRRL
#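 Detergent-containing run (0.01% Triton X-100) in acetate buffer pH 5.5 with 5 mM DTT: enzyme at 1.5 nM final, 15 min compound preincubation at room temperature, then 2 uM Z-FR-AMC substrate. Activity taken as 60 s fluorescence increase at 360/450 nm.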
# Cruzain inh noDet = inhibitors of Trypanosoma cruzi cruzain without detergent; Potency, µM, for inactives: max response, negative = inhibition, actives largely listed as inhibitors; hit rate 2.3% among 200,000; purified cruzain, Z-FR-AMC fluorescence, no detergent;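 note: plate controls were enzyme without inhibitor for no effect and buffer without enzyme for full effect; nearly all actives have a fitted effect of over 40% in size; top concentration of the series not given in the record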
#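 Detergent-free condition (0.00005% Triton X-100) in acetate buffer pH 5.5 with DTT. 1.5 nM enzyme and compound were pre-mixed 15 min, then 2 uM Z-FR-AMC substrate added; reaction progress from fluorescence change between first and third reads (60 s).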
# RE007 growth inh = less growth of the S. pombe RE007 Vpr strain; AID 651644; S. pombe RE007 Vpr strain, BacTiter-Glo ATP luminescence, 24 h; control for the full effect not named in the record; Potency, µM (highest dose often 92.2 µM), for the others: top-dose activity change, negative = less growth; hit rate 0.21% among 360,000; active = well fitted falling curve with a large enough effect; inconclusive = small, poorly fitted or top-dose-only effect; inactive = no such curve, though single readings can be large or run the other way;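 note: % is set by controls: 0 for no effect and ±100 for the full control effect; nearly all actives have a fitted effect of over 50% in size; the assay follows cell death caused by Vpr and the record does not say whether a fall means rescue or toxicity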
#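 Fission yeast RE007 carrying one integrated HIV-1 vpr copy, seeded at OD 0.01 in PMG+AL medium with 23 nL pinned compound. Grown 24 h at 30 degrees; viability read by BacTiter-Glo luminescence after 5 min.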
# An asterisk follows results filed as active; ? = inconclusive; . = no result given; & = joins results of further samples; [ ] = dose if it differs, or a comment. Unless noted, calls come from the whole dose curve; as a rule, active = well fitted curve in the direction sought with a large enough effect; inconclusive = small, poorly fitted or top-dose-only effect, or another doubt; inactive = no such curve, though single readings can be large; an effect the other way counts as inactive or inconclusive. Potency is the fitted concentration of half-maximal effect.
SMILES | 2A StopGo | Lassa entry inh | NS1 function inh | SARS PLpro yeast | MARV entry inh | Cruzain inh Det | Cruzain inh noDet | RE007 growth inh
CCCC(=O)c1cc(F)c(N2CCN(C(=O)OCC)CC2)cc1C | -27% | ? | -8% | -5% | -10% | -7.5% | -3% | -29%
COc1ccc(CCNC(=O)COc2cc(C)cc3oc(=O)cc(C)c23)cc1OC | 6% | 8%[46.1 µM] | 3% | -1% | 6%[46.1 µM] | . | . | -5%
O=C(NCc1cccnc1)c1cn(-c2ccccc2)nc1-c1cccs1 | . | 17% | -24% | -1% | -14% | -2.9% | 0% | 7%
O=C(O)c1cccc(N2C(=O)c3cc([N+](=O)[O-])cc4cc([N+](=O)[O-])cc(c34)C2=O)c1 | 35µM* | . | ? | 5% | . | . | . | -8%
O=C(/C=C/c1cccc(Cl)c1)Nc1ccncc1 | 14% | 20% | -95% | -10% | -3% | -2.7% | -2% | 1%
COc1ccc(C(=O)Nc2ccc(N3CCN(Cc4ccccc4)CC3)cc2)cc1 | -27% | -4% | 2% | -3% | 0%[46.1 µM] | . | . | 6%
CCn1c(SCC(N)=O)nc2sc3c(c2c1=O)CCN(C)C3 | -17% | 7%[46.1 µM] | 11% | 0% | -3%[46.1 µM] | . | . | -14%
O=C(NCCN1CCN(Cc2ccccc2)CC1)C1CC(=O)N(C2CCCC2)C1 (stereo not given) | . | -7% | -4% | 1% | -4% | 3.9% | 0% | 0%
COc1cccc(OCC(=O)Nc2ccccc2C(N)=O)c1 | 25% | -11% | -5% | 1% | -15% | -6.7% | -25% | 0%
COc1ccc(NC(=O)c2c(F)c(F)c(F)c(F)c2F)cc1Cl | -1% | 2% | -7% | -3% | 0% | -0.8% | -5% | -2%
O=c1c2ccccc2nc(CSc2ncnc3nc[nH]c23)n1-c1ccccc1 | -29% | -5% | 12% | -3% | 12% | 4.9% | -13% | 7%
O=C1[C@H]2[C@@H](c3ccc(F)cc3)N3C(=O)N(c4ccccc4)C(=O)[C@@]3(Cc3ccc(Cl)cc3)[C@H]2C(=O)N1C1CCCCC1 | -27% | . | -9% | -4% | . | . | . | 1%
Cc1cc2cc(CCNC(=O)c3ccc(Br)o3)c(=O)[nH]c2cc1C | -20% | 6% | -44% | -5% | -26%[46.1 µM] | -9.1% | -2% | 18%
CC1([N+](=O)[O-])COP(=O)(Nc2cccc(Cl)c2)OC1 (stereo not given) | -23% | 2% | . | . | -4% | . | . | -19%
Cc1ccc(-c2cc(C(F)(F)F)n3nc(C(=O)NCCCn4ccnc4)cc3n2)cc1C | -13% | 0% | -3% | -4% | -11% | 3.4% | -3% | -21%
COc1ccc(C(=O)CSc2nnc(CN3CCCCC3)n2-c2ccc(Cl)cc2)cc1OC | -18% | ? | -25% | 11% | ? | -18% | ? | -4%
COc1ccccc1CC(NC(C)=O)C(=O)NC1CCN(S(=O)(=O)c2ccc(NC(C)=O)cc2)CC1 (stereo not given) | -4% | 6% | -1% | -1% | 4%[46.1 µM] | . | . | 4%
O=C(CSc1ncn(-c2ccccc2)n1)Nc1nc2ccccc2s1 | 14% | 27%[14.3 µM] | -40% | -4% | 0%&0% | -9.8% | -22% | -10%
Cc1ccc(COc2cccc3c2CCN(Cc2ccc(F)cc2)C3=O)cc1 | ? | -26% | -21% | -48% | -26% | -7.9% | 2% | -8%
COc1ccc(CNC(=O)CSc2nnc(C)c(=O)[nH]2)cc1 | 3% | -10% | 2% | 1% | -3%[46.1 µM] | . | . | 7%
Cc1ccc(C(=O)NC(=S)Nc2ccc(-c3ccc(CO)o3)cc2)cc1 | -3% | -18% | . | -3% | -19%[46.1 µM] | . | . | 6%
Cc1ccc(Cl)cc1N1CCN(C(=S)NCCc2ccccc2)CC1 | 17% | -34%[46.1 µM] | 6% | -3% | ? | . | . | -15%
CC1=C(C)CC(C(=O)Nc2ccc(C(=O)N3CCOCC3)cc2)C(C(=O)O)C1 (stereo not given) | -9% | 3% | -1% | 0% | 28%[46.1 µM] | . | . | 2%
COc1ccccc1CNC(=O)c1ccc(OC(C)C)cc1 | 21% | -17%[46.1 µM] | . | -1% | -9%[46.1 µM] | . | . | 52%
O=C(COc1cccnc1[N+](=O)[O-])NCCc1ccc(Cl)cc1Cl | -8% | -20%[46.1 µM] | . | -2% | -1%[46.1 µM] | . | . | 32%
COc1cccc(N2CCN(c3ncnc4onc(-c5ccc(Cl)cc5)c34)CC2)c1 | -27% | ? | . | . | . | 3.8% | 6% | .
O=S(=O)(c1cccc2ccccc12)N1CCCCC1 | -13% | -21%[46.1 µM] | -48% | -2% | ? | . | . | 0%
CCOc1ccc(NC(=O)C2CCCN(S(=O)(=O)c3c(C)noc3C)C2)cc1 (stereo not given) | ? | -20%[46.1 µM] | 7% | 8% | ? | . | . | 10%
c1ccc(-n2nnnc2-n2ccnc2)cc1 | -5% | -2% | -5% | -2% | -7% | -1.3% | -6% | 2%
Nc1nc(SCc2ccc([N+](=O)[O-])cc2)c2ncn(C3OC(CO)C(O)C3O)c2n1 (stereo not given) | -20% | 21% | 8% | 0% | -5% | 0.3% | -6% | 1%

# Continued, starting with the last four of the part before.
# The line under a structure holds: 2A StopGo | Lassa entry inh | NS1 function inh | SARS PLpro yeast | MARV entry inh | Cruzain inh Det | Cruzain inh noDet | RE007 growth inh
- O=S(=O)(c1cccc2ccccc12)N1CCCCC1
    -13% | -21%[46.1 µM] | -48% | -2% | ? | . | . | 0%
- CCOc1ccc(NC(=O)C2CCCN(S(=O)(=O)c3c(C)noc3C)C2)cc1 (stereo not given)
    ? | -20%[46.1 µM] | 7% | 8% | ? | . | . | 10%
- c1ccc(-n2nnnc2-n2ccnc2)cc1
    -5% | -2% | -5% | -2% | -7% | -1.3% | -6% | 2%
- Nc1nc(SCc2ccc([N+](=O)[O-])cc2)c2ncn(C3OC(CO)C(O)C3O)c2n1 (stereo not given)
    -20% | 21% | 8% | 0% | -5% | 0.3% | -6% | 1%
- Cc1cccc(NC(=O)CN(C)S(=O)(=O)c2cccc3cccnc23)c1C
    -30% | . | -10% | -2% | . | . | . | -16%
- CC1CN(C(=O)NCc2ccccc2)c2cc(Cl)ccc2O1 (stereo not given)
    -17%&-16% | -22%[46.1 µM] | -7% | 1% | . | -7.6% | 19% | 3%
- CCc1ccc(N2C(=O)Nc3ccc(Br)cc3C2(O)C(=O)NCCN(C)C)cc1 (stereo not given)
    -7% | 43% | 7% | -1% | ? | . | . | -11%
- COC(=O)c1cc2ccsc2n1CC(=O)N1CCCc2ccccc21
    . | -20% | -36% | -5% | -14% | -5.7% | 3% | 2%
- Cc1cccc(OC(C)C(=O)Nc2ccc3c(c2)OCCO3)c1 (stereo not given)
    -17% | 5% | . | . | 10%[46.1 µM] | . | . | 4%
- CCOc1cc(/C=C(\C#N)C(N)=O)ccc1OS(=O)(=O)c1ccccc1
    0% | 3% | -39% | -28% | -11% | -2.0% | ? | .
- Cc1noc(C)c1CSCC(=O)N(C)CC(=O)Nc1ccccc1Cl
    -23% | -17% | -8% | 2% | -10% | . | . | -3%
- COc1ccc(-n2c(=O)c3c(c4cc(OC)ccc4n3C)n(CC(=O)N3CCCC3)c2=O)cc1
    -4% | -1%[46.1 µM] | . | . | . | -11% | 15% | .
- CN(CC(=O)NCc1cccnc1)S(=O)(=O)c1ccc2c(c1)c(=O)n(C)c(=O)n2C
    -2% | . | ? | 8% | 5% | 5.0% | -17% | -11%
- S=C(NCCN1CCOCC1)Nc1cccc(Cl)c1
    8% | 6% | 12% | 11% | ? | -2.8% | -7% | 7%

# The line under a structure holds: 2A StopGo | Lassa entry inh | NS1 function inh | SARS PLpro yeast | MARV entry inh | Cruzain inh Det | Cruzain inh noDet | RE007 growth inh
- CCOc1cc(CNC(=O)CN2C(=O)c3ccccc3S2(=O)=O)ccc1OC
    20% | 18% | 0% | 3% | 9%&9%[46.1 µM] | 4.8% | -10% | 9%
- COc1ccc(/C=C2\SC(=S)N(CCC(=O)NC3=NCCS3)C2=O)cc1OC
    -11% | 0% | 18% | 2% | ? | -12% | -15% | -1%
- CCOc1ccc(CSc2nc(C)cc(COC)c2C#N)cc1OCC
    -23% | . | 3% | -6% | . | . | . | -7%
- NS(=O)(=O)c1ccc(CCNC(=O)C2CCN(S(=O)(=O)c3ccc(Br)s3)CC2)cc1
    0% | 17% | . | -3% | ? | . | . | 11%
- CN(C)CCn1c(=O)n(C2CCCCC2)c(=O)c2c3c(sc21)CCCCC3
    7% | 22% | . | . | -2%[46.1 µM] | . | . | 9%
- Cc1nn(C)c(C)c1Sc1ccccc1N
    -24% | -3% | 0% | 4% | ? | . | . | 2%
- CC(O)Cc1nsc(NC(=O)c2ccc(Br)o2)n1 (stereo not given)
    0% | 8% | 1% | 3% | 13% | 5.8% | 1% | 10%
- CC(=O)c1ccc(N2CCN(C(C)C(=O)NC3CCCc4ccccc43)CC2)cc1 (stereo not given)
    ? | -12% | -3% | 16% | -16% | 5.5% | -15% | 0%

# Reprinted at random: 2 entries already listed, in no set order.
# The line under a structure holds: 2A StopGo | Lassa entry inh | NS1 function inh | SARS PLpro yeast | MARV entry inh | Cruzain inh Det | Cruzain inh noDet | RE007 growth inh
- CN(C)CCn1c(=O)n(C2CCCCC2)c(=O)c2c3c(sc21)CCCCC3
    7% | 22% | . | . | -2%[46.1 µM] | . | . | 9%
- CC1([N+](=O)[O-])COP(=O)(Nc2cccc(Cl)c2)OC1 (stereo not given)
    -23% | 2% | . | . | -4% | . | . | -19%

# Compounds as they come, and some 4.6% of all compounds hit somewhere here.
